# PK Bst: alters activity of Bacillus stearothermophilus pyruvate kinase. partly purified Bacillus stearothermophilus pyruvate kinase, luminescence ATP production; ribose 5-phosphate activator present at AC10. Potency, µM. 51,000 tested, 1.2% active. AID 361; in the data active means potency below about 11 µM; inconclusive means mostly about 12 µM to 25 µM; inactive means weaker than that;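 the screen sought inhibitors and activators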;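 also: potency is read from the fitted curve at half-maximal effect; scaled between full activation by ribose 5 phosphate and full inhibition by luteolin; about four in five hits inhibit and the cells do not say which; series up to 57 µM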
# YjeE inh: displaces an ADP probe from E. coli YjeE (TsaE); purified YjeE, fluorescence polarisation of a bound ADP probe; P0AF67; 71,000 tested, 0.05% active; Potency, µM; active = well fitted falling curve; inconclusive = weaker or top-dose-only fall, or a rising curve; inactive = flat or poorly fitted curve;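 also: top concentration of the series not given in the record; excess ADP was the control for the full effect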
#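 Fluorescence polarization of a BODIPY Texas Red–ADP probe (2 uM) bound to purified YjeE (10 uM) was read after 15 min room-temperature incubation with compounds. Loss of polarization marks inhibitors; ADP serves as titrated control.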
# * hit, by the source's call; i = inactive; u = inconclusive; x = no result given. An excerpt. The share of hits here may be higher or lower than overall.
PK Bst	YjeE inh	SMILES
>57	i	Cc1cc(C)n(-c2nc3sc4c(c3c3nnc(SCC(N)=O)n23)CC(C)(C)OC4)n1
>57	i	Cc1cc(-c2nnc(SCc3ccccn3)o2)no1
>57	i	O=C(NCCCN1CCOCC1)C1(c2ccccc2)CCCC1
>57	i	O=C(CN1CCN(C(=O)c2ccccc2)CC1)Nc1ccc(Br)cn1
>57	i	COc1cc(C)nc(OCCNS(=O)(=O)c2cc(C)ccc2C)n1
>57	i	O=c1c2c(nc3nc(Cc4ccccc4)[nH]n13)CCC2
>57	i	Cc1cccn2c(=O)c(C=Nc3ccc(Cl)cc3)c(NCCO)nc12
x	i	CC1(C)CC(=O)C(C=NCCN2CCN(C(=O)NC34CC5CC(CC(C5)C3)C4)CC2)=C(O)C1
x	i	Cc1[nH]c2ccccc2c1Cc1nnc(SCC(=O)NCc2ccco2)o1
>57	i	COCCCNC(=O)CCn1c(=O)c2ccccc2n(CC(=O)Nc2ccccc2C)c1=O
>57	i	CCCCCCC(=O)N(O)C1CC(=O)N(c2ccc(Br)cc2)C1=O (stereo not drawn)
>57	i	CCOc1ccc2nc(NC(=O)CS(=O)(=O)c3ccccc3)sc2c1
x	i	CCOC(=O)c1sc(NC(=O)C2CCCO2)c(C(=O)OCC)c1C (stereo not drawn)
>57	i	COc1ccc(NC(=O)COC(=O)c2ccc(Br)o2)cc1OC
x	i	CCc1nccn1S(=O)(=O)c1ccc(OC)c(OC)c1
x	i	C[C@H](O)C(=O)Nc1c(I)c(C(=O)NC(CO)CO)c(I)c(C(=O)NC(CO)CO)c1I
x	i	CS(=O)(=O)N1CCN(Cc2ccccc2C(F)(F)F)CC1
>11	i	CN1CCOc2cc(S(=O)(=O)Nc3ccc(F)cc3)ccc21
>57	i	COCCCNC(=O)CCC(=O)Nc1ccc2nc(N3CCOCC3)cc(C)c2c1
>57	i	O=C(c1ccc(S(=O)(=O)N2CCC(c3nc4ccccc4s3)CC2)cc1)N1CCOCC1

# Record cards (already shown). Order of values: PK Bst | YjeE inh
# CCOC(=O)c1sc(NC(=O)C2CCCO2)c(C(=O)OCC)c1C (stereo not drawn) is listed as x | i
# COc1ccc(NC(=O)COC(=O)c2ccc(Br)o2)cc1OC is listed as >57 | i
# C[C@H](O)C(=O)Nc1c(I)c(C(=O)NC(CO)CO)c(I)c(C(=O)NC(CO)CO)c1I is listed as x | i
# CS(=O)(=O)N1CCN(Cc2ccccc2C(F)(F)F)CC1 is listed as x | i
# CCOc1ccc2nc(NC(=O)CS(=O)(=O)c3ccccc3)sc2c1 is listed as >57 | i

# (more compounds)
PK Bst	YjeE inh	SMILES
>57	i	COc1cccc(NC(=O)CSc2nc3ccccc3c(=O)n2CCCC(=O)N2CCCC2)c1
x	i	COC(=O)c1cccnc1-n1c(=O)c2cccnc2n(Cc2cccc(OC)c2)c1=O
x	i	COc1ccc(C(=O)Cn2nnc(-c3cccs3)n2)cc1
x	i	NC12CC3CC(CC(C3)C1)C2
x	i	CN(C)c1ccc(-c2cncnc2NCc2cccnc2)cc1
x	i	Cc1oc(/N=C/c2ccc3c(c2)OCO3)c(C#N)c1C
>57	i	Cc1noc(C)c1CSc1ncnc2ccccc12
x	i	O=S(=O)(c1ccccc1)N1CCC2(CCN(Cc3ccncc3)CC2)CC1
x	i	COc1ccc2c(c1)OC13CCN(C)CC1C2C(C(=O)c1ccc(F)cc1)C(=O)N3 (stereo not drawn)
x	i	Cc1cc(N2CCCC2)n2nc(C)nc2n1
>57	i	Cc1cccc(C)c1NC(=O)Cn1c(=O)n(CCC(=O)NCc2ccco2)c(=O)c2sccc21
>57	i	c1ccc(-c2nc3nonc3c3nc4ccccc4n23)cc1
x	i	CC1CCCN(C(=O)C(Cc2ccccc2)n2cccc2)C1 (stereo not drawn)
>26	x	COc1ccc(OC)c(C2/C(=C(/O)c3ccc(C)cc3)C(=O)C(=O)N2Cc2ccco2)c1 (stereo not drawn)
x	i	CCOC(=O)c1ccc2ncc(C(=O)OCC)c(NCCN(C)C)c2c1
x	i	COc1ccc(Cl)cc1NC(=O)CSc1nnc(Cc2cccn2C)n1-c1ccc(F)cc1
x	i	c1ccc(CO[C@H]2NCCN2Cc2ccccc2)cc1
>57	i	COc1cccc(C(=O)N2CCN(C(=O)c3cccc(F)c3)CC2)c1
>57	i	CCn1c(N2CCN(CC(=O)c3c[nH]c4ccccc34)CC2)nc2c1c(=O)[nH]c(=O)n2C
>57	i	COc1cc2nc(=S)n3[nH]c(CCn4nc(C)cc4C)nc3c2cc1OC

# Additional results follow.
PK Bst	YjeE inh	SMILES
>57	i	Cc1cc(Cl)c(S(=O)(=O)NC(C(=O)O)c2ccccc2)cc1OCC(N)=O (stereo not drawn)
x	i	Nc1nc(-c2cccs2)cs1
x	i	O=C(O)c1ccccc1-c1ccccc1C(=O)Nc1ccc2c(c1)Cc1ccccc1-2
x	i	Oc1c([C@H](Nc2ccccn2)c2ccccc2)ccc2cccnc12
x	i	CSc1ncnc2c1ncn2CC(=O)[C@H]1CC[C@H]2[C@H]3CCC4=CC(=O)CC[C@@]4(C)[C@@H]3CC[C@@]12C
x	i	CCCCP(=O)(CCCC)Cc1ccccc1O
>57	i	Cc1ccc(C(=O)C2CCN(CC(=O)NC3CCCCC3)CC2)cc1
>57	i	OCCN(Cc1ccccc1)Cc1cccc(C(F)(F)F)c1
u	i	C(=N\n1cnnc1)/c1cn(-c2cccs2)nc1-c1ccccc1
>57	i	CCC(Sc1ccc2nnc(-c3ccc(F)cc3)n2n1)C(=O)OC (stereo not drawn)
>57	i	COc1ccc(Cl)cc1NC(=O)c1oc(C)nc1C
x	i	CCCCn1c(NC(C)=O)c(C#N)c2nc3ccccc3nc21
>57	i	O=C(NC1CCCCC1)/C(=N\O)c1ccccn1
>57	i	CC1CCCCN1CCNS(=O)(=O)c1ccc2c(c1)oc(=O)n2C (stereo not drawn)
x	i	CCc1c(-c2ccccc2)nc2nc(C)c(C)nn12
>57	i	Cc1sc2c(c1C)CN(C1CC(C)(C)NC(C)(C)C1)CN2C(=O)c1ccco1
i	i	CC(=O)c1ccc(OCCCC(=O)OCc2nnc(-c3ccc(Cl)cc3)o2)cc1
>26	x	Cc1nc2sc(C)c(C)c2c(=O)o1
>57	i	Cc1onc(-c2c(Cl)cccc2Cl)c1C(=O)NCCN1CCOCC1
>57	i	COc1cccc2cc(-c3nnc(SCC(=O)NCc4ccccc4)n3C)oc12

# Next part.
PK Bst	YjeE inh	SMILES
>57	i	O=C(Nc1ccncc1)c1cc2ccccc2oc1=O
>26	x	CC1(C)Cc2c(C#N)c(N3CCOCC3)nc(Cc3ccccc3)c2CO1
x	i	Cc1noc(/C=C/N(C)C)c1S(=O)(=O)N1CCCC(C(=O)NCc2ccc(F)cc2)C1 (stereo not drawn)
x	i	COc1cccc(NC(=O)c2ccccc2-c2nc(-c3cccc(C)c3)no2)c1
x	i	CCC(C)c1ccccc1O (stereo not drawn)
x	i	Cc1ccc(NC(=O)C(C)N2CCOCC2)c(C(=O)c2ccccc2)c1 (stereo not drawn)
x	i	Cc1cc(NC(=O)CN2CCCCC2C)nc2c1c(=O)oc1ccccc12 (stereo not drawn)
x	i	COC(=O)N1[C@H](C)C=C[C@]1(Cc1ccccc1)C(=O)NCc1ccc(C)o1
x	i	Clc1ccc(-n2ncc3c(NCC4CCCO4)ncnc32)cc1 (stereo not drawn)
>57	i	Cc1ccc(N(CC(=O)NCc2cccs2)S(=O)(=O)c2cccs2)cc1
>57	i	COCCCNC(=O)C1CCN(C(=O)Nc2ccc(Cl)cc2)CC1
x	i	COc1ccc(NC2c3ccccc3C(=O)N2Cc2ccco2)cc1OC (stereo not drawn)
>57	i	O=C(CSc1nnc(Cc2ccccc2)n1Cc1ccco1)NC1CCCC1
>57	i	CC(C)Sc1nc2c(c(=O)[nH]c(=O)n2C)n1CCc1ccccc1
x	i	O=C(Nc1ccccc1)N(CCc1ccncc1)C1CCCCC1
>57	i	O=C(CN(Cc1ccccc1)C(=O)CCC(=O)Nc1nccs1)NCc1ccco1
>57	i	COc1cccc(C2N(c3ccccn3)C(=O)C3CCCN32)c1OC (stereo not drawn)
>57	i	Cn1c(=NC(=O)CSCC(=O)N2CCCC2)sc2ccccc21
>57	i	O=C(Nc1ccc(F)cc1)c1cccnc1N1CCOCC1
>57	i	Cc1ccc(CN2C(=O)CCC2C(=O)N2CCN(c3ccc(F)cc3)CC2)cc1 (stereo not drawn)

# Of the compounds above, these contain a CF3 group:
PK Bst	YjeE inh	SMILES
x	i	CS(=O)(=O)N1CCN(Cc2ccccc2C(F)(F)F)CC1
>57	i	OCCN(Cc1ccccc1)Cc1cccc(C(F)(F)F)c1

# Next part:
PK Bst	YjeE inh	SMILES
x	i	CCCC(=O)NCCCc1nc2ccccc2n1C(C)C
>57	i	Cc1ccc(C)c(NC(=O)CSc2nnc(CCCCCNC(=O)OC(C)(C)C)o2)c1
x	i	O=C(Nc1ccccc1Cl)N1CCN(c2ccc3nnc(-c4ccccc4)n3n2)CC1
x	i	Cc1c(/N=C/c2ccco2)n(Cc2ccccc2)c2ccccc12
i	i	Cc1ccc(-c2cc(C(=O)N3CCOCC3)c3ccccc3n2)cc1
x	i	O=P(c1ccccc1)(c1ccccc1)C1CCCO1 (stereo not drawn)
x	i	COc1ccc(C(=O)N2CCC[C@@]3(CCN(C)C3)C2)cc1
>57	i	C[C@H](NC(=O)Nc1cccc(C(F)(F)F)c1)C(=O)O
x	i	CCOC(=O)N1CCN(C(=O)CSc2nnc(COc3ccccc3)o2)CC1
x	i	Cc1ccccc1OC(=O)CCC(=O)OCCCC(F)(F)C(F)(F)F
>57	i	COc1ccc(Cl)cc1NC(=O)CN1C(=O)CSC1=O
>11	i	COc1ccc2nc(NC(=O)c3ccc(Br)s3)sc2c1
x	i	Cn1c(=O)c(-c2ccc(F)cc2)nc2cnc(N3CCOCC3)nc21
x	i	Cc1nc(N2CCOCC2)c2nc(-c3ccccc3)n(CC3CCN(C)CC3)c2n1
x	i	Cc1cc(Cl)nc2ccc(Cc3ccc4nc(Cl)cc(C)c4c3)cc12
x	i	CS(=O)(=O)Nc1ccc2c3c(cccc13)CC2
>57	i	CCOC(=O)CN=C1CC(C)(C)CC2=C1Sc1ncnc(N(C)C)c1N2
>57	i	Cn1cccc1C(=S)N1CCOCC1
x	i	Cc1nc2ccc(NC(=O)c3ccc(S(=O)(=O)N4CCOCC4)cc3)cc2s1
x	i	Cc1cc(=O)[nH]c(Nc2c(C)n(C)n(-c3ccccc3)c2=O)n1

# 4 successive entries out of the list so far, for reference:
PK Bst	YjeE inh	SMILES
>57	i	CCOC(=O)CN=C1CC(C)(C)CC2=C1Sc1ncnc(N(C)C)c1N2
>57	i	Cn1cccc1C(=S)N1CCOCC1
x	i	Cc1nc2ccc(NC(=O)c3ccc(S(=O)(=O)N4CCOCC4)cc3)cc2s1
x	i	Cc1cc(=O)[nH]c(Nc2c(C)n(C)n(-c3ccccc3)c2=O)n1

# Continued.
PK Bst	YjeE inh	SMILES
>57	i	O=C(Cc1ccc(F)cc1)Nc1c2c(nn1-c1cccc(Cl)c1)CS(=O)C2 (stereo not drawn)
x	i	CC(C)N1C(=O)CCC1C(=O)N1CCC(Cc2ccccc2)CC1 (stereo not drawn)
>57	i	Cc1cccc(N2CCN(S(=O)(=O)c3ccc4c(c3)n(C)c(=O)c(=O)n4C)CC2C)c1 (stereo not drawn)
u	i	Cc1ccc(NC(=O)NC2=N/C(=C(/C#N)C(=O)N3CCCC3)c3ccccc32)cc1
x	i	CCCC(c1nnnn1CC(=O)OCC)N(Cc1cc2c(C)cc(C)cc2[nH]c1=O)C1CCCC1 (stereo not drawn)
x	i	CCOCCOC(=O)C(C)Sc1n[nH]c(=O)[nH]c1=O (stereo not drawn)
>57	i	Cc1nn(CC(=O)Nc2nnc(CC(=O)N3CCCC3)s2)c(=O)c2ccccc12
u	i	CCn1c(CSc2nc3ccccc3s2)nnc1SCC(=O)c1ccc2c(c1)OCCO2
>57	i	Cc1ccc(-c2nn(CC(=O)NCCN3CCOCC3)c(=O)c3ccccc23)cc1
x	i	Cc1ccc([C@@]2(C)CC/C(=N/N=C3\CC[C@](C)(c4ccc(C)c(C)c4)c4cc(C)c(C)cc43)c3cc(C)c(C)cc32)cc1C
>57	i	CSC1CCCCC1(O)CSc1nc2c(cc1C#N)CCCC2 (stereo not drawn)
>57	i	CCCn1c(NCc2cccc(OC)c2OC)nc2ccccc21
x	i	CC1(C)CC(=O)C=C(NCCCNC2CCCCC2)C1
x	i	Cc1ccc(C(C)C)c(OCc2nc(-c3nonc3N)no2)c1
x	i	CN(C)c1cc(N)c2ccccc2n1 (tested in a mixture with another compound)
x	i	CN(C)c1ccc(-c2cncnc2NCc2cccs2)cc1
x	i	C=Cc1ccccn1
x	i	Cc1cccnc1-n1c(CCN2C(=O)c3ccccc3C2=O)nc2ccccc2c1=O
>57	i	CCS(=O)(=O)N1CCC(C(=O)Nc2cc(Cl)ccc2O)CC1
>57	i	Cn1c(=O)c(C#N)c(-c2ccccc2)n2cnnc12

# More entries follow.
PK Bst	YjeE inh	SMILES
>57	i	CN(C)c1ccc(/C=c2\sc3nc(-c4ccccc4)nn3c2=O)cc1
>57	i	O=C(c1ccc(-c2ccccc2)cc1)N1CCC(C(=O)N2CCCC2)CC1
>57	i	COc1ccc(C)cc1S(=O)(=O)N(C)CC(=O)Nc1ccc2c(c1)OCCO2
>26	x	COc1cc(N2C(=O)CSC23C(=O)Nc2ccccc23)cc(OC)c1OC (stereo not drawn)
>57	i	CCOC(=O)c1cnn2c(C(F)(F)F)cc(-c3cn(C)nc3C)nc12
x	i	O=C(c1cccc(F)c1)N1CCC[C@@]2(CCN(c3ccncc3)C2)C1

# Screening results from PubChem.
